High-throughput results deposited in PubChem by National Center for Advancing Translational Sciences (NCATS).
SARS PLpro yeast = inhibitors of SARS-CoV papain-like protease in yeast; 330,000 tested, 0.19% active; S. cerevisiae expressing SARS-CoV PLpro, growth rescue; control for the full effect not named in the record; Potency, µM (doses to about 32.9 µM), for the others: top-dose activity, positive = growth rescue; AID 485353; active means well fitted rising curve with a large enough effect; inconclusive means small, poorly fitted or top-dose-only effect; inactive means no such curve, though single readings can be large or run the other way; further: 0% is about no effect; nearly all actives have a fitted effect of over 55% in size; growth read by luminescence after 48 h
2A StopGo = FMDV 2A StopGo reporter, luciferase signal | 410,000 tested, 1.2% active | human cells with a luciferase reporter of 2A StopGo recoding; control for the full effect not named in the record | Potency, µM (titrated, usually from 57.9 µM), for the others: at the top dose signal change, negative = less light; active = well fitted falling curve with a large enough effect; inconclusive = small, poorly fitted or top-dose-only effect; inactive = no such curve, though single readings can be large or run the other way; tested in HEK293T cells; further: on the % scale 0 is the no-effect control and ±100 the full control effect; nearly all actives have a fitted effect of over 45% in size; luciferase light after 4 h
RE007 growth inh = less growth of the S. pombe RE007 Vpr strain. S. pombe RE007 Vpr strain, BacTiter-Glo ATP luminescence, 24 h; control for the full effect not named in the record. 360,000 tested, 0.21% active. Potency, µM (top dose mostly 92.2 µM), for the others: top-dose activity change, negative = less growth; active = well fitted falling curve with a large enough effect; inconclusive = small, poorly fitted or top-dose-only effect; inactive = no such curve, though single readings can be large or run the other way;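 further: on the % scale 0 is the no-effect control and ±100 the full control effect; nearly all actives have a fitted effect of over 50% in size; the assay follows cell death caused by Vpr and the record does not say whether a fall means rescue or toxicity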
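Fission yeast RE007 carrying one integrated HIV-1 vpr copy, seeded at OD 0.01 in PMG+AL medium with 23 nL pinned compound. Grown 24 h at 30 degrees; viability read by BacTiter-Glo luminescence after 5 min.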
The depositor's hits bear a star; [ ] = another dose, or the depositor's remark. Potency means the concentration at half of the fitted maximal effect. The list is partial (hit frequency here may not be typical).

Screening COc1ccc(C(=O)c2ccc3oc(-c4ccc(OC)cc4)c(-c4ccc(O)cc4)c3c2)cc1 returned SARS PLpro yeast -1.7%, 2A StopGo -5.8% and RE007 growth inh 9.2%.
CC(=O)Nc1ccc(C2=CC(=O)C[C@H](c3ccc4c(c3)OCO4)C2)cc1 was read as SARS PLpro yeast -4.5%, 2A StopGo 7.6% and RE007 growth inh 8.0%.
For C#CCOCCOCCOCCNc1nc(N2CCN(C(=O)C([C@@H](C)O)n3cc([C@@H](N)CCCCN)nn3)CC2)nc(N2CCN(C(=O)[C@H](CCCCN)n3cc([C@@H](N)[C@H](C)CC)nn3)CC2)n1 (stereo partly drawn) the results were SARS PLpro yeast -4.3%, 2A StopGo -20.7% and RE007 growth inh -22.2%.
`c1ccc2[nH]c(Cn3nnc4ccccc43)nc2c1` gave SARS PLpro yeast -0.1%, 2A StopGo 4.1% and RE007 growth inh -1.8%.
`CNC(C)C(=O)NC(C(=O)N1CCCC1C(=O)NC1CCCc2ccccc21)C(C)C` (stereo not drawn) gave SARS PLpro yeast 5.6%, 2A StopGo -18.0% and RE007 growth inh -2.1%.
Cc1ccc(C(=O)COC(=O)C2CC3CCCC(C2)C3=O)cc1[N+](=O)[O-] (stereo not drawn) was read as SARS PLpro yeast -3.7%, 2A StopGo -9.0% and RE007 growth inh -6.7%.
`Cc1ccc(S(=O)(=O)NCC(=O)OCC(=O)N(C)C2CCCCC2)cc1` gave SARS PLpro yeast 5.0%, 2A StopGo -14.7% and RE007 growth inh -3.3%.
COCCN(C(=O)C1CCCO1)c1c(N)n(CC(C)C)c(=O)[nH]c1=O (stereo not drawn) was read as SARS PLpro yeast 2.8%, 2A StopGo -11.0% and RE007 growth inh 6.1%.
`O=C(CN1CCN(S(=O)(=O)c2cccc(Cl)c2)CC1)NCC1(N2CCOCC2)CCCCC1` gave SARS PLpro yeast -1.0%, 2A StopGo -17.4% and RE007 growth inh 5.3%.
CC[C@@H](CC1CCCCC1)C(=O)N(Cc1ccccc1)c1ccccc1 was read as SARS PLpro yeast -25.3%, 2A StopGo inconclusive and RE007 growth inh 9.5%.
For COc1ccc(C)cc1-n1nnnc1SCC(=O)NC1CCS(=O)(=O)C1 (stereo not drawn) the results were SARS PLpro yeast 3.5%, 2A StopGo 2.5% and RE007 growth inh 10.3%.
`CC(C)NC(=O)Nc1ccc2c(c1)C(=O)N([C@@H](C)CO)C[C@@H](C)[C@@H](CN(C)S(=O)(=O)c1ccc(F)cc1)O2` gave SARS PLpro yeast 3.3%, 2A StopGo 23.7% and RE007 growth inh 5.0%.

Next section, overlapping the part above by 2 compounds.
For COc1ccc(C)cc1-n1nnnc1SCC(=O)NC1CCS(=O)(=O)C1 (stereo not drawn) the results were SARS PLpro yeast 3.5%, 2A StopGo 2.5% and RE007 growth inh 10.3%.
`CC(C)NC(=O)Nc1ccc2c(c1)C(=O)N([C@@H](C)CO)C[C@@H](C)[C@@H](CN(C)S(=O)(=O)c1ccc(F)cc1)O2` gave SARS PLpro yeast 3.3%, 2A StopGo 23.7% and RE007 growth inh 5.0%.
Screening O=C(N/N=C/c1cccc(O)c1)c1ccc(COc2cccc3cccnc23)cc1 returned SARS PLpro yeast 0.9%, 2A StopGo 50.7%[activator] and RE007 growth inh 12.3%.
Screening CNC[C@H]1Oc2ccc(NC(=O)Nc3ccccc3)cc2CC(=O)N([C@H](C)CO)C[C@H]1C returned SARS PLpro yeast -2.1%, 2A StopGo 10.8% and RE007 growth inh 5.0%.
`COc1ccc(CN(C(=O)c2ccc(C)cc2)c2cccc(N)c2)cc1` gave SARS PLpro yeast 0.6%, 2A StopGo 23.3% and RE007 growth inh 8.6%.
Oc1cc(O)cc(/C=C/c2ccc(O)cc2O)c1 was read as SARS PLpro yeast 7.0%, 2A StopGo -23.8% and RE007 growth inh inconclusive.
Screening CC(c1ccccc1)n1c(Cn2ncc3ccccc3c2=O)n[nH]c1=S (stereo not drawn) returned SARS PLpro yeast 0.8%, 2A StopGo -15.3% and RE007 growth inh -9.9%.
For Cc1ccc(C(=O)NC2CC2)cc1S(=O)(=O)N1CCOCC1 the results were SARS PLpro yeast -0.2%, 2A StopGo -11.1% and RE007 growth inh -6.9%.
`CC(=O)Nc1ccc(NC(=O)COC(=O)/C=C/c2ccc3c(c2)OCO3)cc1` gave SARS PLpro yeast 0.9%, 2A StopGo 5.8% and RE007 growth inh 5.3%.
`NC(=O)c1ccc(NC(=O)COC(=O)C2CCN(S(=O)(=O)c3cccs3)CC2)cc1` gave SARS PLpro yeast 0.2%, 2A StopGo 2.1% and RE007 growth inh 6.3%.
For CCN1C[C@@H]2[C@@H]3C(=O)N(C)C(=O)[C@@H]3[C@](CC)(C1=O)N2C(=O)c1ccc(C(C)(C)C)cc1 the results were SARS PLpro yeast -0.7%, 2A StopGo -9.0% and RE007 growth inh 31.2%.
For CC(CNC(=O)Cn1cnc2c(NCc3ccccc3)ncnc21)c1ccccc1 (stereo not drawn) the results were SARS PLpro yeast 14.1µM*, 2A StopGo -27.7% and RE007 growth inh 7.7%.
For C=CC[C@@H](CC(=O)NCCO)C(=O)N[C@@H](COC(=O)[C@@H](CC=C)Cc1ccc(F)cc1)Cc1c[nH]c2ccccc12 the results were SARS PLpro yeast 11.7%, 2A StopGo 0.0% and RE007 growth inh -3.9%.
`C=CCC[C@@H](Cc1ccc(F)cc1)C(=O)OC[C@@H](Cc1c[nH]c2ccccc12)NC(=O)[C@H](CC=C)CC(=O)NCCO` gave SARS PLpro yeast -5.2%, 2A StopGo inconclusive and RE007 growth inh 2.0%.
COc1ccc(-n2c(C)cc(C(=O)CN3C(=O)C(=O)N(Cc4ccccc4)C3=O)c2C)cc1 was read as SARS PLpro yeast 0.6%, 2A StopGo -14.5% and RE007 growth inh -3.4%.
`CNC[C@H]1Oc2c(NC(=O)c3ccc(-c4nccs4)cc3)cccc2C(=O)N([C@@H](C)CO)C[C@@H]1C` gave SARS PLpro yeast -4.0%, 2A StopGo -8.4% and RE007 growth inh 23.2%.
For COc1ccc(C#Cc2c(-c3ccccc3)n(-c3ccccc3)c3ccc(CO)cc23)cc1 the results were SARS PLpro yeast -4.7%, 2A StopGo -22.5% and RE007 growth inh 10.7%.
For O=C(COC(=O)Cc1c[nH]c2ccccc12)Nc1cc(S(=O)(=O)N2CCOCC2)ccc1Cl the results were SARS PLpro yeast 2.8%, 2A StopGo -10.0% and RE007 growth inh 9.3%.
Screening CC(C)C[C@H](NC(=O)c1nc[nH]c1C(=O)N1CCNCC1)C(=O)OCc1ccccc1 returned SARS PLpro yeast 2.1%, 2A StopGo -8.5% and RE007 growth inh -8.0%.
For COc1cc2c(cc1OC)C(c1ccccc1)N(C(=O)CSCC(=O)O)CC2 (stereo not drawn) the results were SARS PLpro yeast 1.5%, 2A StopGo -15.1% and RE007 growth inh 7.9%.
`COc1cc(OC)cc(-c2c(-c3ccsc3)c3cc(Br)ccc3n2C)c1` gave SARS PLpro yeast 5.6%, 2A StopGo -24.1% and RE007 growth inh 3.1%.
Screening COc1ccc2c(c1)c([C@@H]1[C@H](C)[C@H]3CCCC[C@H]3CN1S(=O)(=O)c1ccc(C)cc1)cn2C returned SARS PLpro yeast 8.6%, 2A StopGo -3.7% and RE007 growth inh -6.4%.
Screening COc1ccc(CC(=O)Nc2ccc(C)c(S(=O)(=O)N3CCCCCC3)c2)cc1 returned SARS PLpro yeast 1.1%, 2A StopGo -19.7% and RE007 growth inh 0.1%.
`COc1ccc(S(=O)(=O)N2CCOCC2)cc1NC(=O)c1ccc(OCC(C)C)c(OC)c1` gave SARS PLpro yeast -1.2%, 2A StopGo -6.5% and RE007 growth inh 8.3%.
CCNC(=O)N(C)C[C@H]1N[C@@](Cc2ccccc2)(C(=O)OC)[C@H]2C(=O)N(C)C(=O)[C@@H]12 was read as SARS PLpro yeast -0.7%, 2A StopGo 1.7% and RE007 growth inh 16.7%.
`CC[C@]12c3[nH]c4ccc(Cl)cc4c3CCN1C(=O)[C@@H](CC(=O)NCCc1ccccn1)C[C@@H]2C(=O)N1CCN(C(=O)c2ccco2)CC1` gave SARS PLpro yeast 6.5%, 2A StopGo -12.3% and RE007 growth inh -10.7%.
CCc1cc(C(=O)Nc2nnc(C3CC3)s2)sc1C was read as SARS PLpro yeast 7.5%, 2A StopGo 45.1%[activator] and RE007 growth inh -28.3%.
`Cc1nnc(SC(C)C(=O)N(C)C2CCCCC2)n1N` (stereo not drawn) gave SARS PLpro yeast 7.6%, 2A StopGo -19.8% and RE007 growth inh -5.7%.
Screening Cc1cccc(C(=O)NCCC(=O)N2CCc3ccccc3C2)c1 returned SARS PLpro yeast -4.0%, 2A StopGo -13.8% and RE007 growth inh 1.5%.
`CC(C(=O)N1CCCC1)N1CCN(S(=O)(=O)c2ccc(C(C)(C)C)cc2)CC1` (stereo not drawn) gave SARS PLpro yeast -1.0%, 2A StopGo -14.3% and RE007 growth inh -1.2%.
CCOC(=O)[C@H]1[C@H]2COc3ccc(C)cc3[C@@H]2N2C(=O)[C@@H](CO)NC(=O)[C@@]12C was read as SARS PLpro yeast -6.5%, 2A StopGo -19.2% and RE007 growth inh 9.6%.
`C[C@H](CO)N1C[C@H](C)[C@@H](CN(C)C(=O)Nc2ccccc2)Oc2c(NC(=O)Nc3ccc4c(c3)OCO4)cccc2C1=O` gave SARS PLpro yeast 2.8%, 2A StopGo 69.2%[activator] and RE007 growth inh 0.1%.
For CSc1ccc(/C=C/C(=O)OCC(=O)NCC2CCCO2)cc1 (stereo not drawn) the results were SARS PLpro yeast -10.4%, 2A StopGo -6.7% and RE007 growth inh 10.0%.
`C[C@H]1COC(=O)[C@@H](Cc2ccc(F)cc2)CC/C=C/C[C@H](CC(=O)N(CCO)Cc2ccccc2)C(=O)N1` gave SARS PLpro yeast 9.1%, 2A StopGo -20.2% and RE007 growth inh 8.3%.
For Nc1nc(SCC(=O)Nc2cccc(F)c2)n[nH]1 the results were SARS PLpro yeast -7.5%, 2A StopGo -5.7% and RE007 growth inh 2.2%.
For O=C(Cn1cc(C(F)(F)F)cc(Cl)c1=O)Nc1cc(Cl)cc(Cl)c1 the results were SARS PLpro yeast 0.2%, 2A StopGo -7.2% and RE007 growth inh -10.6%.
`CC(C)CCCN1C(N(C)C)=NC[C@@H]1C` gave SARS PLpro yeast 0.2%, 2A StopGo -6.1% and RE007 growth inh -2.2%.
CN(CC(=O)Nc1cccc(F)c1)C(=O)c1cn2ccccc2n1 was read as SARS PLpro yeast 1.1%, 2A StopGo -0.6% and RE007 growth inh 3.9%.

The last four records of the part before come first, to join the parts:
For Nc1nc(SCC(=O)Nc2cccc(F)c2)n[nH]1 the results were SARS PLpro yeast -7.5%, 2A StopGo -5.7% and RE007 growth inh 2.2%.
For O=C(Cn1cc(C(F)(F)F)cc(Cl)c1=O)Nc1cc(Cl)cc(Cl)c1 the results were SARS PLpro yeast 0.2%, 2A StopGo -7.2% and RE007 growth inh -10.6%.
`CC(C)CCCN1C(N(C)C)=NC[C@@H]1C` gave SARS PLpro yeast 0.2%, 2A StopGo -6.1% and RE007 growth inh -2.2%.
CN(CC(=O)Nc1cccc(F)c1)C(=O)c1cn2ccccc2n1 was read as SARS PLpro yeast 1.1%, 2A StopGo -0.6% and RE007 growth inh 3.9%.
O=C(NCc1n[nH]c(=S)n1-c1ccc(Cl)c(Cl)c1)c1ccc(S(=O)(=O)N2CCOCC2)cc1 was read as SARS PLpro yeast 3.1%, 2A StopGo 5.9% and RE007 growth inh -4.0%.
Cc1ccc(S(=O)(=O)N2CCN(C(=O)c3cc4c(s3)CCCC4)CC2)cc1 was read as SARS PLpro yeast 0.5%, 2A StopGo -29.5% and RE007 growth inh 9.1%.
COc1ccc(S(=O)(=O)N2CCOCC2)cc1NC(=O)c1cc(=O)[nH]c2ccccc12 was read as SARS PLpro yeast -1.7%, 2A StopGo -3.3% and RE007 growth inh 6.7%.
Screening C[C@H](CO)N1C[C@H](C)[C@H](CN(C)C(=O)Nc2ccc(C(F)(F)F)cc2)Oc2c(NC(=O)c3ccncc3)cccc2C1=O returned SARS PLpro yeast 1.1%, 2A StopGo -5.8% and RE007 growth inh -9.4%.
CCC(C(=O)n1cccc1C#N)c1ccccc1C (stereo not drawn) was read as SARS PLpro yeast 3.1%, 2A StopGo -19.2% and RE007 growth inh 0.1%.
`C[C@H](NC(=O)c1nc[nH]c1C(=O)N1CCNCC1)C(=O)OC(C)(C)C` gave SARS PLpro yeast 1.6%, 2A StopGo -8.6% and RE007 growth inh 41.9%.
`COc1cccc(CN(C)CC(=O)Nc2ccccc2C(=O)NC2CC2)c1` gave SARS PLpro yeast -6.7%, 2A StopGo -10.0% and RE007 growth inh -5.3%.
`O=C1NC[C@H](CC2CCCCC2)N(CCc2cccc(F)c2)C1=O` gave SARS PLpro yeast 3.3%, 2A StopGo -11.5% and RE007 growth inh 8.0%.
O=S(=O)(CC(CN1CCOCC1)N1CCOCC1)c1ccccc1 (stereo not drawn) was read as SARS PLpro yeast -2.5%, 2A StopGo -11.5% and RE007 growth inh 9.8%.
